Compound activity as filed in PubChem BioAssay.
RanGTP-Impb inh – inhibitors of RanGTP-importin-beta interaction, primary screen, biochemical, FRET, CFP-Ran, YFP-importin-beta, homogeneous; inhibition, % (test concentration not listed); cell-free CFP-Ran/YFP-importin-beta FRET ratio; Ran GTPase (GTP-bound) - importin-beta complex; AID 2216, 2009; 300,000 tested, 1.1% active;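 active = most replicates above 15%; inconclusive = exactly half above 15%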;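 note: 0% = DMSO wells and 100% = Ran loaded with GDP instead of GTP; wells of about 40 µL received 100 nL stock; the first replicate is given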
FGF22 binding – binders of human FGF22 protein, primary screen, FGF22 synaptogenesis inhibitor project, biophysical, thermal shift, single point | Fibroblast growth factor 22 (Homo sapiens), Q9HCT0 | recombinant FGF22 thermal shift, SYPRO orange fluorescence; percent of sucrose octasulfate shift, DMSO zero | calls only at 9.99 µM | 340,000 tested, 1.5% active | AID 651658, 2012;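 active = melting point raised past a set limit in the mean and every replicate; inconclusive = no clear call; three in four hits are not shown here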
Target sequence (Q9HCT0 whole entry, looked up): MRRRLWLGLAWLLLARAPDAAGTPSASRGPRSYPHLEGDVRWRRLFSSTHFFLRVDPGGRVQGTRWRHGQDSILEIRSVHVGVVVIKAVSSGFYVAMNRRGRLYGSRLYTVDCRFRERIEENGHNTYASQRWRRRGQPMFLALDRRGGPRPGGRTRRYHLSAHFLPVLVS
Ecoli growth – E. coli growth inhibition, primary screen, OD600; Escherichia coli growth, 23 h; hits give low values; OD600 absorbance (no concentration beside the values); 330,000 tested, 0.21% active; AID 1053175, 2014;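 active = OD600 absorbance below the run mean of sample wells minus 3.6 SD, in any replicate, cut at about 0.56 in these data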;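 note: stock transfer was 300 nL into about 60 µL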
Vif A3G – inhibitors of Vif binding to APOBEC3G peptide, primary screen, biochemical, TR-FRET, GST-Vif 1-94, biotin-A3G peptide, dose response retest (AID 1117319); Virion infectivity factor (Human immunodeficiency virus type 1 group M subtype B (isolate …; TR-FRET GST-Vif / biotin-A3G peptide binding; higher % means a stronger effect; test concentration not given here; strong numbers were not always called active; inhibition, %; hits with a dose series show IC50 in µM; 260,000 tested, 0.57% active;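 active = above the screen mean plus three standard deviations and confirmed in dose response; inconclusive = results disagree or hit not tested in dose response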;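 note: Vif residues 1-94 fused to GST binding biotinylated APOBEC3G peptide 110-148; 0% = full assay without inhibitor and 100% = GST in place of GST-Vif; retest series ran down from 100 µM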
HNF4A DNA FP – change in binding of human HNF4A to DNA, primary screen, biochemical, fluorescence polarization, FITC-DNA. Hepatocyte nuclear factor 4-alpha (Homo sapiens), P41235. 1 h. activity change, % at 10 µM. 360,000 tested, 0.3% active; in the data active = activity change above about 30%, passing the limit was not always enough;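 note: controls were the assay level and a saturating level of protein; the project sought stronger binding though the title names inhibitors; some compounds called inactive have numbers as strong as hits; positive values seem to mean higher polarization but the record does not say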
Target sequence (P41235 whole entry, looked up): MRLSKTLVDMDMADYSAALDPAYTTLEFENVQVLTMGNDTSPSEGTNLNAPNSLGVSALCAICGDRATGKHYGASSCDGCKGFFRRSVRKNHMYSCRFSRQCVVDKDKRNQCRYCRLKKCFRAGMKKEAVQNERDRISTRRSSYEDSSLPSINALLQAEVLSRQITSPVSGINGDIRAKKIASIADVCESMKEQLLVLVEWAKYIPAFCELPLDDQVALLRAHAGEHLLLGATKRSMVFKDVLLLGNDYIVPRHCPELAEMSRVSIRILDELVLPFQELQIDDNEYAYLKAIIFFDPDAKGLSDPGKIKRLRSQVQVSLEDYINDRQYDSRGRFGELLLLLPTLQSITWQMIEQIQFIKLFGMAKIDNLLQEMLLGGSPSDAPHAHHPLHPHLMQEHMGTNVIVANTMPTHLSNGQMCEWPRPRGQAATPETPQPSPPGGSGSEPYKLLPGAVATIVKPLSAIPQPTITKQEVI
MLL AF4-AF9 inh – inhibitors of AF4 peptide binding to AF9, primary screen, biochemical, AlphaScreen, biotin-AF4 peptide, FLAG-AF9, single point; inhibition, % at 10 µM; 350,000 tested, 0.47% active; AID 651704, 2012;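 active = every replicate reaching a set inhibition limit, whatever the replicate mean, cut at about 25% in these data; inconclusive = mean inhibition reaches that limit but some replicates miss it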;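 note: 0% = plate neutral control median and 100% = total signal loss; the record names both 10 and 1 µM as test concentration; the first replicate is given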
UCH37 inh – inhibitors of human UCH37 deubiquitinase, primary screen, biochemical, Ub-AMC cleavage, fluorescence. 330,000 tested, 0.33% active. purified proteasome/UCH37. Ubiquitin carboxyl-terminal hydrolase isozyme L5 (Homo sapiens), Q9Y5K5. inhibition, % (concentration not given with the values);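 active = mean of two replicates above 20%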;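 note: 0% = compound-free wells with enzyme and 100% = wells lacking proteasome; stock transfer was 100 nL into about 20 µL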
Target sequence (Q9Y5K5 whole entry, looked up): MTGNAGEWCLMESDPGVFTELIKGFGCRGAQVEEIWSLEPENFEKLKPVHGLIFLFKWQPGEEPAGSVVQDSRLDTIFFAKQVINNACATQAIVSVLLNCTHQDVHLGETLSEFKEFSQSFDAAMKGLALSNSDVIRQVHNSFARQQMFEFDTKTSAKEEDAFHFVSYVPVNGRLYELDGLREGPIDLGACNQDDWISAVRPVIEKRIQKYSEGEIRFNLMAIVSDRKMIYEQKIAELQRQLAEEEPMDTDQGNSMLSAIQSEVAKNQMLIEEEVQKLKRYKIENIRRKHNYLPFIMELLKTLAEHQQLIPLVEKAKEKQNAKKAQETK
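Signal – fluorescence, ex 355 nm, em 460 nm · System – Proteasome-bound UCH37 · Input – 0.15 nM proteasome as dispensed · Timing – 30 min preincubation with enzyme, 25 min cleavage at room temperature · Read-out basis – percent inhibition of cleavage signal versus uninhibited and no-proteasome wells · Medium – Tris-HCl pH 7.4 with ATP-MgCl2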
* marks the source's active call; other numbers are inactive results. Not all compounds are listed. The share of hits here may be higher or lower than overall.

Cc1noc(/C=C/N(C)C)c1S(=O)(=O)N(C)CC(=O)N1CCc2ccccc21 was read as RanGTP-Impb inh 0.9, Ecoli growth 0.794, Vif A3G 1.6% and UCH37 inh 15.3.
`CC1=CN(S(=O)(=O)c2ccc(C)cc2)C[C@@H]2c3ccccc3N(S(=O)(=O)c3ccc(C)cc3)[C@H]12` gave FGF22 binding inactive, Ecoli growth 0.7, Vif A3G -2.7%, HNF4A DNA FP 1.0, MLL AF4-AF9 inh 3.0 and UCH37 inh 1.7.
Screening O=C(N/N=C/c1ccc(Br)s1)c1cccc([N+](=O)[O-])c1 returned RanGTP-Impb inh 3.2, Vif A3G 23.4% and HNF4A DNA FP 23.6.
Screening CCN(CC)C(=O)Cn1c(=O)n(CCC(=O)Nc2ccc(F)cc2)c(=O)c2sccc21 returned RanGTP-Impb inh -3.0, FGF22 binding inactive, Ecoli growth 0.694, HNF4A DNA FP 2.7, MLL AF4-AF9 inh -13.4 and UCH37 inh 4.8.
`Cc1cccc(OCCCC(=O)N2CCCc3ccccc32)c1C` gave RanGTP-Impb inh 2.5, FGF22 binding inactive, Ecoli growth 0.648, Vif A3G 0.6%, HNF4A DNA FP -3.6, MLL AF4-AF9 inh 4.6 and UCH37 inh 2.4.
`COc1cccc(CNC(=O)CCn2c(=O)c3cccn3c3cccnc32)c1` gave RanGTP-Impb inh -0.1, FGF22 binding inactive, Ecoli growth 0.66, Vif A3G -0.9%, HNF4A DNA FP -1.2, MLL AF4-AF9 inh -2.2 and UCH37 inh -2.8.
For Nc1ccn(CC(=O)N2CCN(c3ccccn3)CC2)c(=O)n1 the results were FGF22 binding inactive, Ecoli growth 0.688, HNF4A DNA FP -2.6, MLL AF4-AF9 inh 3.6 and UCH37 inh 3.0.
Screening CCCn1c(N)c(NCCN2CCOCC2)c(=O)n(CC(=O)NCc2ccccc2)c1=O returned RanGTP-Impb inh 3.4, FGF22 binding inactive, Ecoli growth 0.7, Vif A3G 4.5%, HNF4A DNA FP 3.8, MLL AF4-AF9 inh -0.4 and UCH37 inh 2.7.
`CC12C=CC(=O)C=C1CCC1C2C(O)CC2(C)C1CCC2(O)C(=O)CO` (stereo not drawn) gave FGF22 binding inactive, Ecoli growth 0.668, HNF4A DNA FP -4.6, MLL AF4-AF9 inh -1.4 and UCH37 inh 2.9.
Screening O=C(c1cccc(F)c1)N1CCC(N2CCOCC2)CC1 returned RanGTP-Impb inh 6.7, Ecoli growth 0.744, Vif A3G 0.4%, HNF4A DNA FP -2.8 and UCH37 inh 6.0.
For O=C(O)CN(c1ccccn1)S(=O)(=O)c1ccc(Cl)cc1 the results were RanGTP-Impb inh 0.6, Ecoli growth 0.757, Vif A3G -1.8%, HNF4A DNA FP -3.6 and UCH37 inh -24.6.
For COc1ccc(-c2cnnn2-c2ccc(NC(=O)c3ccc(S(=O)(=O)N4CCCCC4)cc3)cc2)cc1 the results were RanGTP-Impb inh 2.7, Ecoli growth 0.71, HNF4A DNA FP 2.7 and UCH37 inh 0.1.

Next section (two carried over from the part before).
For O=C(O)CN(c1ccccn1)S(=O)(=O)c1ccc(Cl)cc1 the results were RanGTP-Impb inh 0.6, Ecoli growth 0.757, Vif A3G -1.8%, HNF4A DNA FP -3.6 and UCH37 inh -24.6.
For COc1ccc(-c2cnnn2-c2ccc(NC(=O)c3ccc(S(=O)(=O)N4CCCCC4)cc3)cc2)cc1 the results were RanGTP-Impb inh 2.7, Ecoli growth 0.71, HNF4A DNA FP 2.7 and UCH37 inh 0.1.
`CC(=O)c1ccc(NC(=O)NC2CCCc3ccccc32)cc1` (stereo not drawn) gave RanGTP-Impb inh -1.6, FGF22 binding inactive, Ecoli growth 0.707, Vif A3G -10.8%, HNF4A DNA FP 3.4, MLL AF4-AF9 inh -8.5 and UCH37 inh 1.5.
For Cc1noc(C)c1CSCC(=O)Nc1cc(C(F)(F)F)ccc1N1CCOCC1 the results were FGF22 binding inactive, Ecoli growth 0.642, HNF4A DNA FP 3.6, MLL AF4-AF9 inh -1.7 and UCH37 inh 0.9.
Screening CCc1ccc(/C=N/NC(=O)c2cc(C3CC3)nc3ccccc23)s1 returned RanGTP-Impb inh -2.2, Vif A3G -1.4% and HNF4A DNA FP 4.8.
`N#Cc1ccccc1S(=O)(=O)N1CCN(C(=O)CCNS(=O)(=O)c2ccc(Cl)cc2)CC1` gave FGF22 binding inactive, Ecoli growth 0.694, HNF4A DNA FP 0.0, MLL AF4-AF9 inh -0.8 and UCH37 inh -3.1.
`Cc1ncc(CO)c(/C=N/N=C/c2ccccc2O)c1O` gave RanGTP-Impb inh 1.7, Vif A3G 28.8% and HNF4A DNA FP 2.8.
For CCCc1cc(=O)[nH]c(SCC(=O)Nc2ccc([N+](=O)[O-])cc2C#N)n1 the results were RanGTP-Impb inh inconclusive, FGF22 binding inactive, Ecoli growth 0.689, Vif A3G 5.6%, HNF4A DNA FP 2.0, MLL AF4-AF9 inh 4.1 and UCH37 inh 0.4.
O=C(O)CSc1nnc(-c2cccnc2)n1Cc1ccccc1 was read as RanGTP-Impb inh -0.8, Ecoli growth 0.717, Vif A3G -2.2%, HNF4A DNA FP 0.4 and UCH37 inh 2.2.
For O=C(CN1CCC(C(=O)c2ccc3c(c2)OCCO3)CC1)NCc1ccc(F)cc1 the results were RanGTP-Impb inh 0.9, FGF22 binding inactive, Ecoli growth 0.681, HNF4A DNA FP 0.1, MLL AF4-AF9 inh 2.0 and UCH37 inh 1.6.
For CC(=O)Cc1nsc(NC(=O)c2cccs2)n1 the results were RanGTP-Impb inh 2.0, Ecoli growth 0.696, Vif A3G -0.9%, HNF4A DNA FP -3.4 and UCH37 inh 3.6.
`O=C(COc1ccc2ccccc2c1)Nc1ccccc1C(=O)O` gave RanGTP-Impb inh -0.8, FGF22 binding inactive, Ecoli growth 0.692, HNF4A DNA FP 5.6, MLL AF4-AF9 inh -1.5 and UCH37 inh 5.2.
Screening O=C(N/N=C/c1ccc2c(c1)OCO2)C1CC1 returned RanGTP-Impb inh inconclusive, FGF22 binding inactive, Vif A3G -2.1%, HNF4A DNA FP 3.4 and MLL AF4-AF9 inh 0.8.
`CC(C)CCNC(=O)CCc1nnc(COc2ccccc2)o1` gave RanGTP-Impb inh -2.1, FGF22 binding inactive, Ecoli growth 0.714, Vif A3G -4.1%, HNF4A DNA FP -1.3, MLL AF4-AF9 inh -0.1 and UCH37 inh 2.5.
For COc1cccc(-c2sc3ccc(OC)cc3c2C#CC2(O)CCCCC2)c1 the results were FGF22 binding inactive, HNF4A DNA FP 2.9 and MLL AF4-AF9 inh 0.5.
`COc1ccc(/C=C/C(=O)c2cc3cccc(OC)c3oc2=O)cc1` gave RanGTP-Impb inh -3.1, FGF22 binding inactive, Ecoli growth 0.679, Vif A3G 2.3%, HNF4A DNA FP 3.3, MLL AF4-AF9 inh -0.6 and UCH37 inh 3.6.
Screening O=C(COC(=O)C1CCCCC1C(=O)N1CCc2ccccc21)NCc1ccco1 (stereo not drawn) returned RanGTP-Impb inh 1.2, Ecoli growth 0.694, Vif A3G 15.7%, HNF4A DNA FP -3.3 and UCH37 inh 4.9.
OC(COc1ccccc1)CN1CCCCC1 (stereo not drawn) was read as FGF22 binding inactive, Ecoli growth 0.698, Vif A3G -5.6%, HNF4A DNA FP 0.5, MLL AF4-AF9 inh -4.5 and UCH37 inh 0.9.
Screening O=C(COc1ncnc2ccccc12)Nc1cc([N+](=O)[O-])ccc1F returned RanGTP-Impb inh 0.6, FGF22 binding inactive, Ecoli growth 0.668, Vif A3G inconclusive, HNF4A DNA FP 0.4, MLL AF4-AF9 inh -2.6 and UCH37 inh 0.8.
Screening Cc1cc(N)n(-c2ccc(S(=O)(=O)N3CCOCC3)cc2[N+](=O)[O-])n1 returned RanGTP-Impb inh 1.3, FGF22 binding inactive, Ecoli growth 0.691, HNF4A DNA FP 2.6, MLL AF4-AF9 inh -18.3 and UCH37 inh 5.8.
CN(C)c1cc(C(F)(F)F)nc(-c2ccccn2)n1 was read as RanGTP-Impb inh -2.8, Ecoli growth 0.676, Vif A3G -6.7%, HNF4A DNA FP 3.8 and UCH37 inh -5.1.
`NC(=O)Nc1ccc(C(=O)OCC(=O)NCc2ccc3c(c2)OCO3)cc1` gave FGF22 binding inactive, Ecoli growth 0.627, Vif A3G -11.0%, HNF4A DNA FP -3.0, MLL AF4-AF9 inh -1.8 and UCH37 inh 2.2.
Screening O=c1[nH]c2ccccc2nc1/C=C/c1ccccc1 returned RanGTP-Impb inh 61.2*, FGF22 binding inactive, Ecoli growth 0.698, Vif A3G -9.7%, HNF4A DNA FP -1.0, MLL AF4-AF9 inh 0.4 and UCH37 inh -98.4.
For CCCCCCN1CCN(C2CN(Cc3ccc([N+](=O)[O-])cc3)S(=O)(=O)C2)CC1 (stereo not drawn) the results were FGF22 binding inactive, Vif A3G 1.6%, HNF4A DNA FP 4.0 and MLL AF4-AF9 inh 2.4.
Cc1cc(=O)[nH]c(SCC(=O)NC(c2ccccc2)c2ccccc2)n1 was read as RanGTP-Impb inh 7.6, FGF22 binding inactive, Ecoli growth 0.715, Vif A3G -3.5%, HNF4A DNA FP 2.8, MLL AF4-AF9 inh -3.5 and UCH37 inh -1.6.
`Cc1nn(CC(=O)N2CCOCC2)c(=O)c2ccccc12` gave RanGTP-Impb inh 4.2, Ecoli growth 0.72, Vif A3G 1.8%, HNF4A DNA FP -1.5 and UCH37 inh 5.9.
`O=C(O)CC(NC(=O)C(c1ccccc1)c1ccccc1)c1ccc(F)cc1` (stereo not drawn) gave RanGTP-Impb inh 0.1, Ecoli growth 0.704, Vif A3G -4.8%, HNF4A DNA FP -4.7, MLL AF4-AF9 inh -1.3 and UCH37 inh 3.0.
`Cc1ccc(NC(=O)CSc2sc3c(O)cc(=O)[nH]c3c2C#N)c(F)c1` gave RanGTP-Impb inh -1.8, FGF22 binding inactive, HNF4A DNA FP -7.8 and MLL AF4-AF9 inh -1.5.
`CC1(C)CC(=O)C2=C(C1)OC1OC(=O)CC21C` (stereo not drawn) gave FGF22 binding inactive, Ecoli growth 0.664, Vif A3G 2.9%, HNF4A DNA FP -4.0, MLL AF4-AF9 inh -3.8 and UCH37 inh -1.0.
Screening CN(C)S(=O)(=O)c1ccc(NC(=O)CSc2nc3ccccc3n2-c2ccccc2)cc1 returned RanGTP-Impb inh 0.2, Ecoli growth 0.742, Vif A3G 10.5%, HNF4A DNA FP -1.5 and UCH37 inh 6.5.
For COc1cc(-c2nc(C)c(C(C)=O)n2O)ccc1OCC(=O)Nc1ccc(F)cc1 the results were RanGTP-Impb inh inconclusive, FGF22 binding inactive, Ecoli growth 0.633, Vif A3G -3.6%, HNF4A DNA FP 3.7, MLL AF4-AF9 inh 2.9 and UCH37 inh 4.8.
COc1ccccc1N1CCN(C(=O)C2CCCCN2S(=O)(=O)c2ccc(C)cc2)CC1 (stereo not drawn) was read as RanGTP-Impb inh 7.7, FGF22 binding inactive, Ecoli growth 0.71, Vif A3G 24.2%, HNF4A DNA FP 1.7, MLL AF4-AF9 inh 1.7 and UCH37 inh 1.8.
